VACV E9 pol inh – inhibitors of vaccinia virus processive DNA synthesis (E9 polymerase). in vitro processive DNA synthesis, absorbance read-out; stronger effect = lower value; some inactives read as strong as hits. normalized absorbance, % (test concentration not listed). 46,000 tested, 0.94% active;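 active = replicate mean up to 90% and picked by the depositor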;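 note: 100% = median of the test wells of a plate; 100 nL library stock went into each well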
Numbers without * were called inactive. These rows are one share of the data; count on the stated rates, not on these rows.

How did CCCCOC(=O)c1ccc(N)cc1 do in these assays?
VACV E9 pol inh: 97

Results for NC(=O)c1ccc(-c2nc(-c3ccc4c(c3)OCO4)c(-c3ccccn3)[nH]2)cc1 ?
VACV E9 pol inh: 100

What do the screens show for `O=C(O)CCCCCCCC(=O)O`?
VACV E9 pol inh: 100

Results for CN1CCC(=C2c3ccccc3CC(=O)c3sccc32)CC1 ?
VACV E9 pol inh: 101

What do the screens show for `Cc1oncc1C(=O)Nc1ccc(C(F)(F)F)cc1`?
VACV E9 pol inh: 100

Results for CCCN(CCC)C(=O)C(CCC(=O)O)NC(=O)c1ccccc1 (configuration not stated) ?
VACV E9 pol inh: 100

What do the screens show for `CN(C)CCOC(=O)C(c1ccccc1)C1(O)CCCC1` (configuration not stated)?
VACV E9 pol inh: 100

Results for CN=C(NC#N)Nc1ccc(C2=NNC(=O)CC2C)cc1 (configuration not stated) ?
VACV E9 pol inh: 98

What do the screens show for `OCC(O)CN1CCN(c2ccccc2)CC1` (configuration not stated)?
VACV E9 pol inh: 101

What do the screens show for `CCN(CC)S(=O)(=O)c1ccc(C(=O)O)cc1`?
VACV E9 pol inh: 113

What do the screens show for `CCN(CC)CCOC(=O)C(c1ccccc1)c1ccccc1`?
VACV E9 pol inh: 103

Results for c1ccc(-c2nc3scc(-c4ccccc4)n3n2)cc1 ?
VACV E9 pol inh: 110

What do the screens show for `Cc1ccc(C(=O)C(C)CN2CCCCC2)cc1` (configuration not stated)?
VACV E9 pol inh: 103

Results for CCOC(=O)Nc1ccc2c(c1)N(C(=O)CCN1CCOCC1)c1ccccc1S2 ?
VACV E9 pol inh: 99

How did CN=C(N)NC(=O)Nc1c(C)cccc1C do in these assays?
VACV E9 pol inh: 98

The list goes on; it opens with the 2 that closed the last part.
Results for CCOC(=O)Nc1ccc2c(c1)N(C(=O)CCN1CCOCC1)c1ccccc1S2 ?
VACV E9 pol inh: 99

How did CN=C(N)NC(=O)Nc1c(C)cccc1C do in these assays?
VACV E9 pol inh: 98

Results for CCN1CCN(c2cc(C)c3cc(NC(=S)NCc4ccc(C)cc4)ccc3n2)CC1 ?
VACV E9 pol inh: 99

How did O=C(c1ccccc1)c1ccc2n1CCC2C(=O)O (configuration not stated) do in these assays?
VACV E9 pol inh: 98

Results for CCCCC(=O)OC1(C(=O)CO)C(C)CC2C3CCC4=CC(=O)C=CC4(C)[C@@]3(F)[C@@H](O)CC21C (some centres not stated) ?
VACV E9 pol inh: 100

What do the screens show for `NC(=O)NC(=O)Cc1ccccc1`?
VACV E9 pol inh: 102

Results for CCC(Cc1c(I)cc(I)c(N)c1I)C(=O)O (configuration not stated) ?
VACV E9 pol inh: 100

Results for NC(=O)c1ccc([N+](=O)[O-])cc1Cl ?
VACV E9 pol inh: 97

What do the screens show for `Cc1ccsc1/C=C/C1=NCCCN1C`?
VACV E9 pol inh: 100

Results for O=C(O)CCC(=O)Nc1nc(-c2ccc3ccccc3c2)cs1 ?
VACV E9 pol inh: 98

As a working copy, some entries already given.
What do the screens show for `NC(=O)NC(=O)Cc1ccccc1`?
VACV E9 pol inh: 102

Results for CCC(Cc1c(I)cc(I)c(N)c1I)C(=O)O (configuration not stated) ?
VACV E9 pol inh: 100

Results for NC(=O)c1ccc([N+](=O)[O-])cc1Cl ?
VACV E9 pol inh: 97

What do the screens show for `Cc1ccsc1/C=C/C1=NCCCN1C`?
VACV E9 pol inh: 100

Results for O=C(O)CCC(=O)Nc1nc(-c2ccc3ccccc3c2)cs1 ?
VACV E9 pol inh: 98

Ordered by heavy-atom count (falling): part of the list above
Results for CCN1CCN(c2cc(C)c3cc(NC(=S)NCc4ccc(C)cc4)ccc3n2)CC1 ?
VACV E9 pol inh: 99

How did O=C(c1ccccc1)c1ccc2n1CCC2C(=O)O (configuration not stated) do in these assays?
VACV E9 pol inh: 98

What do the screens show for `NC(=O)NC(=O)Cc1ccccc1`?
VACV E9 pol inh: 102

Bioassay records deposited in PubChem by ICCB-Longwood Screening Facility, Harvard Medical School.
